# Compound activity: PubChem BioAssay, Fisher Drug Discovery Resource Center
# NPYLR7 agonist: agonists of mosquito NPYLR7 receptor, primary screen, cell-based, Aedes aegypti, calcium fluorescence, mosquito biting behavior. Aedes aegypti neuropeptide Y-like receptor 7 (NPYLR7). HEK293T NPYLR7/Galpha15, GCaMP6s calcium fluorescence. activation, % at 10 µM. 270,000 tested, 0.15% active. AID 1259423, 2018; in the data active = activation above about 40%;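 note: 0% = vehicle and 100% = reference agonist at the receptor; some compounds past the cut are filed as inactive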
# NPYLR7 agonist max-min: also measured in NPYLR7 agonist; calls as there; activation, %; measured here: Max-Min RFU normalised activation; some inactives read as strong as hits;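 span of the calcium signal over five minutes; 0% = vehicle and 100% = native peptide agonist; compound fluorescence can raise it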
# * hit, by the source's call; & = joins results of further samples. A portion of the library; the hit share may differ from the screen's.
SMILES,NPYLR7 agonist,NPYLR7 agonist max-min
Cc1ccc(-n2c(C)ccc2C)c(O)c1,-4,-5
CN(C)S(=O)(=O)CCNCCC(=O)N1CCCc2ccccc21,22,10
CONC(=O)c1cccc(COc2ccc(C)nc2)c1,15,9
COc1nn(C)cc1C(=O)NC1CCCCCC1,2,4
O=C(Nc1nnc(-c2ccsc2)o1)NC(c1ccccc1)c1ccccc1,2,0
COC(=O)Nc1ccc2c(c1)C(=O)Nc1ccccc1O2,7,3
CSc1ccc(COc2coc(CN3CCCN(C(=O)c4cc(C(C)(C)C)nn4Cc4ccccc4)CC3)cc2=O)cc1,28,14
O=S(=O)(c1ccc2c(c1)nc(SCc1ccc(F)cc1Cl)n2CC1CCCO1)N1CCCC1 (stereo not given),9,4
COc1ccc(N2CCN(C(=O)C3CCCCC3C(=O)NCCc3cccs3)CC2)cc1 (stereo not given),-10,-15
Cc1nnc(SCc2cc(=O)oc3cc(C)c(C(C)C)cc23)s1,-5,-7
COCc1c(Br)c(C)nc(OCC(=O)N/N=C\c2ccc(N(C)C)c(Br)c2)c1C#N,27,30
O=C(CSc1nnc(-c2ccccc2)n1-c1ccccc1)N/N=C\c1ccc(OCc2ccccc2)cc1,-6,-12
O=C(NC1CCc2ccccc21)c1ccc(-c2ccc(F)c(F)c2)s1 (stereo not given),17,14
OCc1csc(-c2cccc3cnccc23)n1,0,-6
CCOc1ccc(-c2ccc(=O)n(CCNS(=O)(=O)c3ccc(CC)s3)n2)cc1,17,10
CCC(C)[C@H]1O[C@]2(CC[C@@H]1C)C[C@@H]1C[C@@H](C/C=C(\C)[C@@H](OC3C[C@H](OC)C(O[C@H]4C[C@H](OC)[C@@H](O)[C@H](C)O4)[C@H](C)O3)[C@@H](C)/C=C/C=C3\CO[C@@H]4[C@H](O)C(C)=C[C@@H](C(=O)O1)[C@]34O)O2 (stereo not given in full),1,7
Cc1nc(N(C)C)nc(N2CCCC(O)C2)c1C (stereo not given),23,9
CC(=O)c1c(OCc2ccccc2)cc(OCc2ccccc2)c(C)c1O,11,18
Cc1c(C(=O)NCc2ccc(Cl)s2)cnn1C(C)(C)C,-1,-2
Cc1cccc(CSc2nnc(C(Cc3ccccc3)NC(=O)C(C)(C)CCl)n2-c2ccc([N+](=O)[O-])cc2)c1 (stereo not given),14,15
Clc1cccc2sc(NCCCn3ccnc3)nc12,-4,-4
CCc1nc2c(OCCOC)cccn2c1N(C)C(=O)c1ccncc1,18,11
CC(Cc1ccccc1)N=C1NS(=O)(=O)c2ccccc21 (stereo not given),-13,-20
CCNC(=O)[C@@H]1C[C@H](N)CN1Cc1nn(C)c2cccc(Cl)c12,3,1
CCOCCCNc1nc(-c2ccncc2)ncc1C(=O)OCC,-2,-10

# Following part.
SMILES,NPYLR7 agonist,NPYLR7 agonist max-min
COc1ccc(CCNC(=O)c2csc(CSc3nnc(-c4cccnc4)n3-c3ccccc3OC)n2)cc1OC,-5,-4
Cc1ccc(-n2c(SCc3ccc(F)cc3)nnc2C(Cc2ccccc2)NC(=O)c2ccccc2Br)cc1 (stereo not given),-7,-4
CCOC(=O)C1(Cc2ccccc2Cl)CCN(C(=O)c2ccc(OC)o2)CC1,20&13,8&17
O=c1c2nc(N3CCOCC3)sc2c(-c2ccco2)nn1Cc1ccc(Cl)cc1Cl,-2,-8
Cc1cccc(Cn2ccnc2CN(C(=O)c2ccc(F)cc2)C2CC2)c1,6,6
CCOC(=O)c1cc2cc3cc(C)ccc3nc2s1,6,2
CCOCCn1c(=NC(=O)C2CCCN2S(=O)(=O)c2cccs2)sc2c(C)cc(C)cc21 (stereo not given),0,-1
CCn1cc(C(=O)N2CCN(CC(=O)N(C(C)C)C(C)C)CC2)c2nn(-c3ccccc3)c(=O)c-2c1,-4,-8
Cc1cccc(NC(=O)CC(=O)N(C)Cc2cc(C(C)(C)C)n[nH]2)c1C,17,12
COc1cc(C2C(C#N)=C(C)NC3=C2C(=O)CCC3)cc(Cl)c1O (stereo not given),8,6
CNc1ncccc1C(=O)N1CCn2cncc2C1,-7,-8
O=C(CN1C(=O)NC2(CCCC2)C1=O)Nc1nnc(C23CC4CC(CC(C4)C2)C3)s1,4,0
O=C1C2CC=CCC2C(=O)N1c1ccc(OCc2ccccc2)cc1 (stereo not given),13,13
CC1CCN(Cc2ccc(C(=O)N3CCCC(O)(CO)CC3)o2)CC1 (stereo not given),10,5
COCc1nc2ccccc2n1Cc1ccc(F)cc1,0,-3
Cc1cccc(-n2ccnc2SC(C)C(=O)N(C)Cc2cccc(F)c2)c1 (stereo not given),-6,-10
Cc1cc2ncn(S(=O)(=O)c3ccc(F)cc3)c2cc1C,0,3
CCn1ccnc1-c1c(-c2ccccc2)ncn1CCSc1nccn1C,-7,-11
Cc1ccc(Br)cc1S(=O)(=O)Nc1c(C)nn(C)c1C,3&7,2&10
CN(C)S(=O)(=O)c1ccc(NC(=O)c2cccc(C#N)c2)cc1,-4,-6
Cc1cc(CN2CCCC(C)C2)c(C)c(-c2nccn2CCO)c1 (stereo not given),7,-4
Cc1ccc(-c2ccc(C)cc2N)c(N)c1,2,0
O=C(c1ncoc1C1CC1)N1CCC2(CCCN(CC3CCC3)C2=O)C1 (stereo not given),6,4
CCS(=O)(=O)Oc1ccc(CN(C(=O)Nc2c(Cl)cccc2Cl)C(C)C)cc1,-3,4
Cc1ccc(CCCC(=O)N2CC(OCC(=O)N(C)C)C2)cc1,2,-1

# The list continues.
SMILES,NPYLR7 agonist,NPYLR7 agonist max-min
Cc1cccc(-n2cc(CNCc3cnn(C)c3)c(-c3cccc(F)c3)n2)c1,-2,-4
COc1ccc(NC(=O)c2cc(C3CCCCN3C(=O)c3ccc(C#N)cc3)on2)c(C)c1 (stereo not given),2,-1
Cc1cc(C)c(C)c(S(=O)(=O)NCCCN2CCOCC2)c1C,12,18
COc1ccc(OC)c(NC(=O)c2ccc(N3CCCC(C(N)=O)C3)cc2)c1 (stereo not given),4,3
COCCn1c(CN2CCSCC2)cnc1S(=O)(=O)CC(C)(C)C,-6,-7
Cc1ccn(-c2ccc(Nc3ccc(NC(=O)Cc4ccc(Cl)cc4)cc3)nn2)n1,-2,-8
CNC(=O)c1sc2nc(-c3cccc([N+](=O)[O-])c3)cn2c1C,4,-1
Cc1cc(C(=O)Nc2c(C)nc3c(C)cccn3c2=O)ccc1[N+](=O)[O-],-3,-2
Cc1ccc(C(=O)NC(C)c2cccc(Br)c2)cn1 (stereo not given),1,1
Cn1c(C2CCN(S(C)(=O)=O)CC2)nn(CC(=O)NCc2ccccc2Cl)c1=O,-2,6
O=C(c1cc2n(n1)CCCNC2)N1CCCC1c1nc2ccccc2s1 (stereo not given),-5,-11
C=CCCC(O)CN(CCc1nc(-c2ccc(C)cc2)no1)Cc1ccco1 (stereo not given),4,3
CCCc1cc(N2CCCCC2CC(C)C)n2ncnc2n1 (stereo not given),-1,-2
CCCCc1nc(N2CCN(C(=O)Nc3ccc(Br)cc3)CC2)c2c3c(sc2n1)CCCC3,-7,-7
CCOc1ccc(OCCOc2ccc(Br)cc2)cc1,5,3
O=C1N(CC2CCC2)CCCC12CCN(C1Cc3ccccc3C1)C2 (stereo not given),16,10
CC1(C)CC2CC(C)(CN2P2(=O)C=C(c3ccccc3)OC(c3ccccc3)=C2)C1 (stereo not given),1,30
COc1cc(OC)cc(C(=O)Nc2cccc3c2C(=O)c2ccccc2C3=O)c1,-2,-6
C=CC[N@@+]12CC[C@]34c5ccccc5N5/C=C6\C7N(/C=C(\C53)[C@@H](C[C@@H]41)/C(=C/CO)C2)c1ccccc1[C@@]71CC[N@@+]2(CC=C)C/C(=C\CO)[C@@H]6C[C@@H]12 (stereo not given in full),-1,-7
COc1cccc2cc(C(N)=O)c(=Nc3cccc(C(N)=O)c3)oc12,-5,-9
COCCN(CC(=O)N(CCc1c[nH]c2ccccc12)Cc1ccc(OC)c(OC)c1)C(=O)Nc1ccc(F)c(F)c1,19,29
CCc1cc(NCCc2ccc(Cl)cc2)n2ncnc2n1,-11,-6
Cc1ccc(Oc2cc(Cl)nc(N)n2)cc1,6,4
CC1c2ccsc2CCN1C(=O)COc1ccc2c(c1)CCC(=O)N2 (stereo not given),0,1
CSc1ccc(C)c(C(=O)N2CCCC2)c1,3,3

# 16 compounds already listed, arranged by SMILES length, lowest first:
SMILES,NPYLR7 agonist,NPYLR7 agonist max-min
Cc1ccc(Oc2cc(Cl)nc(N)n2)cc1,6,4
CCOc1ccc(OCCOc2ccc(Br)cc2)cc1,5,3
CCCc1cc(N2CCCCC2CC(C)C)n2ncnc2n1 (stereo not given),-1,-2
Cc1ccc(C(=O)NC(C)c2cccc(Br)c2)cn1 (stereo not given),1,1
Cc1cc(C)c(C)c(S(=O)(=O)NCCCN2CCOCC2)c1C,12,18
O=C1N(CC2CCC2)CCCC12CCN(C1Cc3ccccc3C1)C2 (stereo not given),16,10
O=C(c1cc2n(n1)CCCNC2)N1CCCC1c1nc2ccccc2s1 (stereo not given),-5,-11
C=CCCC(O)CN(CCc1nc(-c2ccc(C)cc2)no1)Cc1ccco1 (stereo not given),4,3
CNC(=O)c1sc2nc(-c3cccc([N+](=O)[O-])c3)cn2c1C,4,-1
COc1ccc(OC)c(NC(=O)c2ccc(N3CCCC(C(N)=O)C3)cc2)c1 (stereo not given),4,3
Cc1cc(C(=O)Nc2c(C)nc3c(C)cccn3c2=O)ccc1[N+](=O)[O-],-3,-2
Cn1c(C2CCN(S(C)(=O)=O)CC2)nn(CC(=O)NCc2ccccc2Cl)c1=O,-2,6
CC1(C)CC2CC(C)(CN2P2(=O)C=C(c3ccccc3)OC(c3ccccc3)=C2)C1 (stereo not given),1,30
COc1ccc(NC(=O)c2cc(C3CCCCN3C(=O)c3ccc(C#N)cc3)on2)c(C)c1 (stereo not given),2,-1
COCCN(CC(=O)N(CCc1c[nH]c2ccccc12)Cc1ccc(OC)c(OC)c1)C(=O)Nc1ccc(F)c(F)c1,19,29
C=CC[N@@+]12CC[C@]34c5ccccc5N5/C=C6\C7N(/C=C(\C53)[C@@H](C[C@@H]41)/C(=C/CO)C2)c1ccccc1[C@@]71CC[N@@+]2(CC=C)C/C(=C\CO)[C@@H]6C[C@@H]12 (stereo not given in full),-1,-7

# Some of these compounds in order of SMILES length, lowest first.
SMILES,NPYLR7 agonist,NPYLR7 agonist max-min
Cc1cc(C)c(C)c(S(=O)(=O)NCCCN2CCOCC2)c1C,12,18
CC1(C)CC2CC(C)(CN2P2(=O)C=C(c3ccccc3)OC(c3ccccc3)=C2)C1 (stereo not given),1,30
C=CC[N@@+]12CC[C@]34c5ccccc5N5/C=C6\C7N(/C=C(\C53)[C@@H](C[C@@H]41)/C(=C/CO)C2)c1ccccc1[C@@]71CC[N@@+]2(CC=C)C/C(=C\CO)[C@@H]6C[C@@H]12 (stereo not given in full),-1,-7

# Carrying on.
SMILES,NPYLR7 agonist,NPYLR7 agonist max-min
COc1ccc(NC(=O)c2cccnc2SCc2ccc(C(C)(C)C)cc2)cc1OC,3,3
Cn1cccc1CNCCCN1CCOCC1,1,1
O=C1OC(Nc2ccccc2F)c2ccccc21 (stereo not given),12,7
C=CCC1CC(=O)N(CCCCOc2ccc(C(C)(C)CC)cc2C(C)(C)CC)C1=O (stereo not given),16,6
CCc1nc2c(OCc3ccc(C(=O)OC)cc3)cccn2c1N(C)C(=O)c1ccc(C)cc1,-17,3
COc1cccc(NC(=O)CNc2cc(C)ccc2NC(C)=O)c1,8,5
Cc1cc(C)n2c(NC(C)(C)CC(C)(C)C)c(-c3ccccc3F)nc2c1,8,11
COC(=O)c1ccc(-c2cccc3c2OC(CNC(=O)C24CC5CC(CC(C5)C2)C4)C3)nc1 (stereo not given),6,2
CC(C)N(Cc1cccc(OS(C)(=O)=O)c1)C(=O)c1ccc(Br)cc1,-1,12
Cc1cc(=O)oc2c(C)c(O)c(-c3ccnc(N)n3)cc12,13,21
CCCN1C(=O)C(c2c(-c3ccccc3)[nH]n(-c3ccccc3)c2=O)=C(N2CCCCC2C)C1=O (stereo not given),6,19
O=C(c1ccc(Cl)c(Cl)c1)N1CCCC(OCc2cc(F)cc(F)c2)C1 (stereo not given),-2,2
CCc1nn(-c2ccccc2)c(Oc2ccccc2)c1CN(CC(O)Cc1ccccc1)CC1CCCO1 (stereo not given),8,7
Cc1cc(=O)[nH]c2n[nH]c(=S)n12,-4,0
COC(=O)c1cc(S(=O)(=O)N2CCOCC2)cn1C,2,0
CCc1nc2n(n1)C(=O)C(C(c1ccco1)N1CCCC(C)C1)S2 (stereo not given),0,22
CCOc1ccc2nc(SCC(=O)Nc3nc4ccccc4s3)sc2c1,-6,-12
CCc1nc2n(n1)C(=O)C(C(c1ccccc1)N1CCN(C(C)=O)CC1)S2 (stereo not given),-8,-13
COc1ccccc1N(C)S(=O)(=O)c1ccc2c(c1)c(=O)nc1cc(C)ccn12,8,4
COc1ccc(CC(=O)N(Cc2ccco2)Cc2nc3cc(Cl)ccc3o2)cc1,0,5
COc1ccc(C(CNC(=O)c2ncc(Cl)c(Cl)c2Cl)N2CCOCC2)cc1 (stereo not given),2,-2
Cc1ccc(Oc2ncccc2CNC(=O)c2scc3c2OCCO3)cn1,5,4
Cc1ccc(OCCN2CCC2(C)C(=O)Nc2cccc(Oc3ccccc3)c2)cc1 (stereo not given),5,4
CN1[C@H]2CC[C@@H]1CN(Cc1c(C(=O)N3CCCC3)nc3ccccn13)CC2,7,-2
CCCCCn1c(C(C)NC(=O)CC)nc2ccccc21 (stereo not given),5,11
CCCCCC1CCC(c2ccc(-c3noc(-c4ccc(F)cc4)n3)cc2)CC1 (stereo not given),-4,-9
NCc1csc(Nc2cc(Oc3ccccc3)ncn2)n1,-6,-10
O=C(Nc1ccc(-c2cccc(F)c2)cc1)C1CCCN(C(=O)Cn2cccn2)C1 (stereo not given),5,2
O=C1C(=Cc2c(NCCCO)nc3ccccn3c2=O)SC(=S)N1CC1CCCO1 (stereo not given),7,5
